GIV-Gai inh: inhibitors of GIV peptide binding to Galpha-i3, primary screen, biochemical, fluorescence polarization, FITC-GIV GBA peptide, rat Galphai3 | 90 min; hits give low values; scaled: aluminum fluoride 0%, vehicle 100% | percent of control (FP), % (test concentration not listed) | hit rate 0.42% among 210,000 | AID 1224905, 2016;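 active = replicate mean at 85% of control or lower, very high polarization wells dropped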;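 note: wells of about 15 µL received 100 nL stock; the first replicate is given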
Target sequence (P08753 whole entry, looked up): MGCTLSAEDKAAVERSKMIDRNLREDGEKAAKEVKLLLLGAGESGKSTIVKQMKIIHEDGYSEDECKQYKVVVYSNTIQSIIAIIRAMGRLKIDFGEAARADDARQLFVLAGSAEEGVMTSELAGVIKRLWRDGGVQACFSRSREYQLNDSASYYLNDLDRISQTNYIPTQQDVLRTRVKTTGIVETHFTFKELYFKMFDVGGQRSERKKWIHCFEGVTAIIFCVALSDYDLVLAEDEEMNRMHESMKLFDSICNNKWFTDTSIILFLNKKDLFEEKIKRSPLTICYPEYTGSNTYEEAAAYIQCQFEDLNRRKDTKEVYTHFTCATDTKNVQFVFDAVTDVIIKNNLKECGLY
Sa growth 42C: S. aureus growth inhibition at 42 and 30 °C, primary screen, LtaS inhibitor project, RN4220, two temperatures | OD600, 20 h, 42 °C; hits give low values | relative growth, % (concentration not given with the values) | hit rate 0.53% among 170,000 | AID 720641, 2013;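 active = growth at 42 °C up to 50% and 20 or more points under that at 30 °C, or under 10% at both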;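 note: 300 nL library stock went into each well; scaled to the means of positive and negative controls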
HCMV NEC inh: inhibitors of HCMV UL50-UL53 interaction, biochemical, HTRF | HCMV UL50-UL53 nuclear egress complex (human cytomegalovirus) | hit rate 0.15% among 190,000 | inhibition, % (no concentration beside the values) | normalized percent inhibition;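 active = both replicates at 50% or more, plus weaker picks with an unusually low signal ratio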;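 note: stock transfer was 100 nL into about 20 µL; 0% = negative control wells and 100% = wells with untagged competitor protein; inactives centre near -12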
Sa growth 42C second temp: also measured in Sa growth 42C; calls as there; relative growth, %; measured here: growth at 30 °C;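 optical density after 20 h as mean of two plates; 100% = untreated growth and lower means inhibition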
The depositor's hits bear a star; . = no result given; & = joins results of further samples. Compounds were not picked by outcome (roughly 0.82% active in at least one column).

SMILES | GIV-Gai inh | Sa growth 42C | Sa growth 42C second temp | HCMV NEC inh
CC1=C(C(=O)Nc2cccnc2)C(c2ccc(F)cc2)n2nc(SCc3ccccc3F)nc2N1 (configuration not stated) | 105 | 116 | 92 | -1
CCOC(=O)c1cc(-c2cccs2)nn1-c1ccc(C)cc1C | . | 101 | 103 | 11
c1coc(C2NCCS2)c1 (configuration not stated) | 105 | 92 | 107 | 3
Cc1ccc(NC(=O)CN2C(=O)CSc3ccc(S(=O)(=O)N(C)C)cc32)cc1C | 101 | 78 | 84 | .
COc1ccc(NC(=O)Cn2c(=O)c3cc(Cl)ccc3n3nncc23)cc1 | 112&103 | 95 | 89 | 10&-18
COC(=O)CNC(c1ccccc1)c1cc(Br)ccc1NC(=O)CCN1CCOCC1 (configuration not stated) | 98 | 21* | 56* | .
Cc1ccc2c(C)nc(N/C(N)=N/S(=O)(=O)c3ccccc3)nc2c1 | 101 | 113 | 89 | .
Cc1nc(SCCCCC#N)c2ccccc2n1 | . | 101 | 65 | -34
O=C(Nc1ccc(N2CCOCC2)cc1)c1ccc2c(=O)[nH][nH]c(=O)c2c1 | . | 114 | 101 | -7
CN1c2ccccc2C(=O)/C(=C\Nc2cc(C(F)(F)F)cc(C(F)(F)F)c2)S1(=O)=O | 104 | 94 | 94 | -1
O=C(NCCn1c(-c2ccccc2)nc2cccnc21)c1cccc(Cl)c1 | 104 | . | . | -19
S=c1nc2c(n[nH]1)[nH]c1ccccc12 | 106 | 51 | 42 | -192
COc1ccccc1COc1ncnc2c1cnn2-c1ccccc1 | . | 101 | 99 | 7
COCCOC(=O)c1c(-c2ccccc2)c(-c2ccccc2)nn(C)c1=O | 99 | 97 | 83 | -31
CCn1cc(C(=O)NCc2ccccc2OC)c(=O)c2cc(S(=O)(=O)N3CCCCC3)ccc21 | 99 | 83 | 93 | 6
CCc1ccc(NC(=O)c2sc3ncnc(N(C)C4CCCCC4)c3c2C)cc1 | 106 | 95 | 98 | .
Cc1cc(C)nc(Nc2ccccc2Br)n1 | 106 | 99 | 97 | -8
Cn1c(CO)nc2cc(N=Cc3ccccc3O)ccc21 | . | 110 | 91 | 9
CC(C)CCNC(=O)CN1C(=O)CSc2ccc(S(=O)(=O)N3CCC(C)CC3)cc21 | 102 | 109 | 88 | .
CC1=C(c2ccc(C)c(C)c2)S(=O)(=O)N=C1N1CCC(C(=O)N2CCC(C(N)=O)CC2)CC1 | 100 | 100 | 88 | .
CCS(=O)(=O)N1CCN(CC2CC=CCC2)CC1 (configuration not stated) | 103 | 121 | 89 | .
O=C(Cn1nnc(-c2cccc(C(F)(F)F)c2)n1)NC1CC1 | . | 88 | 88 | -16
CC(C)c1ccc(CNC(=O)C2CCCN(c3cc(=O)n(C)c(=O)n3C)C2)cc1 (configuration not stated) | 92 | . | . | -5
Cc1noc(C)c1COc1ccc(CC(=O)NCCc2ccccn2)cc1 | . | 104 | 99 | 9
COc1ccc(N2Cc3cccc(C(=O)Nc4cccc(OC)c4)c3C2=O)cc1 | 105 | 109 | 87 | .
Next compounds
SMILES | GIV-Gai inh | Sa growth 42C | Sa growth 42C second temp | HCMV NEC inh
CC(=O)N1CCC(C(=O)NCc2c(-c3ccccc3)noc2C)CC1 | 101 | 99 | 95 | -4
N#Cc1c(C(F)(F)F)cc(-c2ccccc2)[nH]c1=S | . | 81 | 100 | -33
CCOc1c(CNCc2ccc3c(c2)OCO3)cccc1OC | 97 | 83 | 96 | 4
Brc1ccc(Oc2ncnc3c2oc2ccccc23)cc1 | . | 85 | 97 | -38
O=C(NCC(c1ccco1)N1CCCCC1)c1cc(C(F)(F)F)cc(C(F)(F)F)c1 (configuration not stated) | . | 101 | 94 | -14
COc1ccc(C(=O)COC(=O)C(Cc2c[nH]c3ccccc23)NC(=O)c2ccc(C(C)(C)C)cc2)cc1 (configuration not stated) | 105 | 96 | 94 | -27
CS(=O)(=O)c1ncc(N(Cc2ccco2)Cc2ccco2)c(C(=O)Nc2ccccc2Br)n1 | 105 | 100 | 92 | 12
CCn1c(=O)[nH]c(=O)c2c(C(=O)OC)cc(-c3ccc(C)cc3)nc21 | . | 108 | 87 | -21
FC(F)(F)c1ccc(Cl)c(NC2=NCCC2)c1 | . | 92 | 87 | -27
CC(C)c1nn2c(=O)cc(COC(=O)c3ccc(NC(=O)C4CCCCC4)cc3)nc2s1 | 99 | 76 | 89 | .
CCN(CC)C(=S)SCc1cn2ccccc2n1 | . | 75 | 58 | -46
N#Cc1ccc(CSc2nncn2-c2ccccc2)cc1 | . | 94 | 94 | -6
COc1ccc(CC(=O)NCCn2ccc3ccccc32)cc1 | 106 | 103 | 90 | 6
CCc1nnc(NC(=O)CCCn2c(=O)oc3ccccc32)s1 | . | 86 | 93 | -22
Cc1cc(NC2CCCCC2)n2nc(C(F)(F)F)c(-c3ccc(F)cc3)c2n1 | 101 | . | . | -25
Cc1ccc(CSc2nc(N)cc(N)n2)cc1 | 104 | 87 | 51 | 6
CCCc1c(C(=O)OCC)nnc2c(-c3ccccc3)c(C)nn12 | 107 | 81 | 87 | -37
Cc1ccccc1OCc1nc2c3cnn(-c4ccccc4F)c3ncn2n1 | 102 | 119 | 98 | -4
C=CCN1C(=O)C2(C(C#N)=C(N)Oc3c2c(=O)oc2ccccc32)c2ccccc21 (configuration not stated) | 97 | 109 | 81 | .
O=C(Oc1cccc2cccnc12)N1c2ccccc2Sc2ccccc21 | 103 | 110 | 112 | .
COc1ccc2[nH]cc(CCN3CC(C(=O)Nc4ccc(Br)cc4)CC3=O)c2c1 (configuration not stated) | 106 | . | . | -10
CC(C)Oc1ccc2c(C(F)(F)F)cc(=O)oc2c1 | 108 | 92 | 90 | .
CCOC(=O)/C=C1\SCC(=O)N1CC(=O)OCC | . | 74 | 95 | 2
CCOC(=O)c1c(NC(=O)CC2CCCC2)sc(C)c1C | . | 90 | 85 | -23
COc1ccc(Cn2c(SCC(=O)NCc3ccc(Cl)cc3)nc3ccsc3c2=O)cc1 | 103 | 107 | 91 | .

Single records (already shown). Order of values: GIV-Gai inh, Sa growth 42C, Sa growth 42C second temp, HCMV NEC inh
Profile of Brc1ccc(Oc2ncnc3c2oc2ccccc23)cc1 : ., 85, 97, -38
Profile of CS(=O)(=O)c1ncc(N(Cc2ccco2)Cc2ccco2)c(C(=O)Nc2ccccc2Br)n1 : 105, 100, 92, 12

(list continues)
SMILES | GIV-Gai inh | Sa growth 42C | Sa growth 42C second temp | HCMV NEC inh
CC(Oc1ccccc1)C(=O)N1CCc2c(c(C(=O)NCc3ccccc3)nn2C)C1 (configuration not stated) | 108 | . | . | -30
CN(C)c1cccc(N(C)C)c1CNS(=O)(=O)c1cc(Cl)sc1Cl | 104 | 87 | 90 | -21
COc1ccc(CCN2N=NC3C(=O)N(c4ccc(OC)c(Cl)c4)C(=O)C32)cc1 (configuration not stated) | 93 | . | . | -20
CCS(=O)(=O)c1ccccc1C(=O)Nc1sccc1C(=O)NC | 100 | 95 | 87 | -41
Cc1ccc(C)c(N2CCN(S(=O)(=O)c3ccc4oc(=O)c5ncn(C)c5c4c3)CC2)c1 | 108 | 93 | 88 | -4
CCOC(=O)CN1C(=O)C2CC=C(Cl)CC2C1=O (configuration not stated) | 81* | 86 | 89 | -16
CC1CCc2c(C(=O)O)csc2C1 (configuration not stated) | 102 | 102 | 88 | .
CC(=O)Nc1cscc1S(=O)(=O)c1ccccc1 | 101 | 113 | 89 | -12
CCN(C(=O)c1ccccc1)c1cccc2ccccc12 | 99 | 115 | 105 | -10
Cc1cc(C(=O)N2CCN(C)CC2)on1 | 99 | . | . | -2
Cn1c(NN)nc2ccccc21 | . | 96 | 95 | -4
NC(=O)c1nnc2cc(-c3ccccc3)nn2c1N | 107 | 89 | 91 | -61
O=c1ccc2ccc(Oc3nc(-c4cccnc4)nc4ccccc34)cc2o1 | . | 100 | 83 | -13
COc1ccc(N2C(=O)CCC(C(=O)N3CCC(Cc4ccccc4)CC3)C2c2ccc(F)cc2)cc1 (configuration not stated) | 98 | . | . | -16
O=C(Nc1ccccc1)c1cnn(-c2ccccc2)c1C1CCNCC1 | 99 | 99 | 97 | -11
COc1ccc(CCN2C(=O)c3ccccc3C2(O)c2ncc[nH]2)cc1OC (configuration not stated) | 101 | 84 | 91 | -16
Cc1ccc(N=C2C(=O)Nc3ccccc32)c(C)c1 | 105 | 85 | 56 | .
CC1=C(C(=O)Nc2ccccc2)C(c2cccn2C)n2ncnc2N1 (configuration not stated) | 96 | 92 | 89 | .
O=C(c1noc2c1CCc1sccc1-2)N1CCN(c2ccccn2)CC1 | 103 | . | . | -26
CCC(=O)C1=C(c2cccc([N+](=O)[O-])c2)N(C(=O)CC)n2c(nnc2-c2ccccc2)S1 | 103 | 115 | 97 | .
O=C(NC1CC1)C1CCCN(c2ccc(Sc3ccc(Br)cc3)nn2)C1 (configuration not stated) | 106 | . | . | -20
COc1ccc(NC(=O)CCc2c(C)nc3nc(CNC(=O)OC(C)(C)C)nn3c2C)cc1OC | 104 | 104 | 86 | -7
Cc1ccc(C(=O)Nc2ccc(-c3nc(C)no3)cc2)cc1 | 107 | . | . | 2
CCC(=O)c1cn(CC(=O)NC2CCCCC2)c2ccccc12 | . | 97 | 88 | -12
COC(=O)C1C(c2ccc(Cl)cc2)C(C(=O)OC)S(=O)(=O)CS1(=O)=O (configuration not stated) | 105 | 88 | 89 | -30
Next results follow:
SMILES | GIV-Gai inh | Sa growth 42C | Sa growth 42C second temp | HCMV NEC inh
C=Cc1ccc(CSc2nc(-c3ccc(OC)cc3)nc3c2Cc2c(CO)cnc(C)c2O3)cc1 | 102 | 117 | 113 | .
COC(=O)c1c(C)[nH]c(C(=O)N2CCC(CC(=O)NCCc3c[nH]c4ccccc34)CC2)c1C | 103 | . | . | -16
Cc1c(C(=O)NCCC(C)C)oc2ccc(S(=O)(=O)N3CCC4(CC3)OCCO4)cc12 | 108 | 86 | 79 | .
CC(c1ccccc1)n1c(C2CCCO2)nc2ccccc21 (configuration not stated) | 107 | . | . | -22
Cc1sc2nc[nH]c(=S)c2c1C | 98 | 31&33 | 18&33 | -40&-30
CCN(CC)C(=O)COc1cc(=O)n(CC)c2ccccc12 | 103 | 95 | 88 | .
Cc1sc2ncn(CC(=O)Nc3nc4ccccc4s3)c(=O)c2c1S(=O)(=O)N1CC(C)CC(C)C1 (configuration not stated) | 103 | 82 | 64 | -26
COc1ccc2cc3c(nc2c1)N(S(=O)(=O)c1cc(C)c(OC)cc1C)CC3 | 103 | . | . | 0
Cc1[nH]nc(-c2ccc(O)cc2O)c1Oc1ccc(C(C)C)cc1 | . | 29* | 49* | -9
Cc1cc2oc(=O)c(CC(=O)NCCc3ccccc3F)c(C)c2c2occ(C(C)(C)C)c12 | 102 | 105 | 99 | -8
O=C(O)CCOc1ccccc1 | . | 112 | 95 | -1
CSc1cccc(NC(=O)Cn2nc(SC)c(S(=O)(=O)c3ccccc3)c2N)c1 | 109 | 101 | 74 | -35
COc1cccc(OC(=O)CSc2nc(-c3ccccc3)nc3cc(=O)[nH]n23)c1 | 98 | . | . | -16
CC1CCCCN1C(=S)NC1CCCC1 (configuration not stated) | 102 | 100 | 101 | 2
CC(C(=O)Nc1ccc2c(c1)OCCO2)n1nnc(-c2ccccc2)n1 (configuration not stated) | . | 89 | 76 | -16
Cc1ccnc(SCC(=O)N2CCCN(c3ccc(=O)n(-c4ccccc4)n3)CC2)n1 | 97 | . | . | -28

Among those listed so far, these contain an NH in an aromatic ring:
SMILES | GIV-Gai inh | Sa growth 42C | Sa growth 42C second temp | HCMV NEC inh
O=C(Nc1ccc(N2CCOCC2)cc1)c1ccc2c(=O)[nH][nH]c(=O)c2c1 | . | 114 | 101 | -7
S=c1nc2c(n[nH]1)[nH]c1ccccc12 | 106 | 51 | 42 | -192
N#Cc1c(C(F)(F)F)cc(-c2ccccc2)[nH]c1=S | . | 81 | 100 | -33
COc1ccc(C(=O)COC(=O)C(Cc2c[nH]c3ccccc23)NC(=O)c2ccc(C(C)(C)C)cc2)cc1 (configuration not stated) | 105 | 96 | 94 | -27
CCn1c(=O)[nH]c(=O)c2c(C(=O)OC)cc(-c3ccc(C)cc3)nc21 | . | 108 | 87 | -21
COc1ccc2[nH]cc(CCN3CC(C(=O)Nc4ccc(Br)cc4)CC3=O)c2c1 (configuration not stated) | 106 | . | . | -10
COc1ccc(CCN2C(=O)c3ccccc3C2(O)c2ncc[nH]2)cc1OC (configuration not stated) | 101 | 84 | 91 | -16
COC(=O)c1c(C)[nH]c(C(=O)N2CCC(CC(=O)NCCc3c[nH]c4ccccc34)CC2)c1C | 103 | . | . | -16
Cc1sc2nc[nH]c(=S)c2c1C | 98 | 31&33 | 18&33 | -40&-30
Cc1[nH]nc(-c2ccc(O)cc2O)c1Oc1ccc(C(C)C)cc1 | . | 29* | 49* | -9
COc1cccc(OC(=O)CSc2nc(-c3ccccc3)nc3cc(=O)[nH]n23)c1 | 98 | . | . | -16
